Compound activity: PubChem BioAssay, Fisher Drug Discovery Resource Center
NPYLR7 ag = agonists of mosquito NPYLR7 receptor, primary screen, cell-based, Aedes aegypti, calcium fluorescence, mosquito biting behavior | 270,000 compounds, 0.15% hits | activation, % at 10 µM | HEK293T NPYLR7/Galpha15, GCaMP6s calcium fluorescence | Aedes aegypti neuropeptide Y-like receptor 7 (NPYLR7); in the data active = activation above about 40%;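 also: 0% = vehicle and 100% = reference agonist at the receptor; some compounds past the cut are filed as inactive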
NPYLR7 ag max-min = further read-out of NPYLR7 ag, marked with its call; activation, %; measured here: Max-Min RFU normalised activation; some inactives read as strong as hits;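 span of the calcium signal over five minutes; 0% = vehicle and 100% = native peptide agonist; compound fluorescence can raise it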
An asterisk follows results filed as active.

SMILES	NPYLR7 ag	NPYLR7 ag max-min
O=C1CCC(C(=O)N2CCc3ccc(NC(=O)c4ccccc4Cl)cc3C2)=NN1	5	2
Cn1cc(-c2cccc3c2COCC(=O)N3Cc2ccccc2)cn1	6	5
O=c1cc(CSc2ccc3c(c2)OCCO3)c2c(ccc3ccccc32)o1	-2	-4
Clc1ccc(-c2noc(-c3ccco3)n2)cc1	16	10
COCCNc1cc(-c2ccc3ncsc3c2)c2cc[nH]c2n1	-1	0
O=C(c1cccc(-c2ncc[nH]2)c1)N1Cc2cnn(CCO)c2C1	11	10
CCOc1cc2c(cc1CNc1ccc(C#N)cn1)OC(C)C2 (configuration not stated)	7	8
Cc1cc(C)n2ncc(CN3CCCC3c3ccccn3)c2n1 (configuration not stated)	12	8
COc1ccccc1OCCSc1nc2ccccc2n1Cc1ccccc1	-1	-4
O=c1c2cnc(N3CCCCC3)nc2ccn1Cc1cccnc1	3	4
CCCCc1nc2cc(C(=O)N3CCCCC3CCn3cccn3)ccc2o1 (configuration not stated)	18	9
Cc1nnc(SCCn2c(N3CCOCC3)nc3c2c(=O)n(C)c(=O)n3C)s1	0	23
COCCCN(Cc1cccc(C)c1)Cc1ccc(C(O)(c2cccs2)c2cccs2)o1	-8	18
O=C(c1coc(Cn2cnc3ccccc32)n1)N1CCC(C2CCCCC2)C1 (configuration not stated)	12	2
Cc1cc(C(=O)CN2C(=O)C(=O)N(C3CCCC3)C2=O)c(C)n1Cc1ccco1	10	8
Cc1cccn2c(CC(=O)N3CCCC4(CNC(=O)O4)C3)cnc12 (configuration not stated)	3	2
O=S1(=O)C=C(SCCN2CCOCC2)c2ccccc21	11	1
CCCNC(=O)Cn1nc2c(c1NC(=O)Cc1cccc3ccccc13)CSC2	7	18
Cc1ccc(C(=O)N2CCSC23C(=O)N(Cc2cccc(F)c2)c2ccccc23)cc1 (configuration not stated)	3	7
Cc1cc(NC(=O)CS(=O)(=O)c2cn(Cc3ccc(Cl)cc3)c3ccccc23)no1	-1	8
CCCOC(=O)COc1ccc2c(oc(=O)c3ccccc32)c1C	-7	-11
COc1ccc2c(c1OC)C(=O)OC2CC(=O)c1ccc(Cl)cc1 (configuration not stated)	7	11
Cc1ccc2[nH]c(=O)c(CN3CCN(c4cc(C)nc(N)n4)CC3)cc2c1	4	1
CCCc1cncnc1N1CCN(C2CCN(C(=O)C(C)C)CC2)CC1	3	2
O=C(c1nc2sccn2c1CNC1CCCc2ccccc21)N1CCCCCCC1 (configuration not stated)	-3	15

The final 2 entries of the section above lead into the next.
SMILES	NPYLR7 ag	NPYLR7 ag max-min
CCCc1cncnc1N1CCN(C2CCN(C(=O)C(C)C)CC2)CC1	3	2
O=C(c1nc2sccn2c1CNC1CCCc2ccccc21)N1CCCCCCC1 (configuration not stated)	-3	15
O=C(NNS(=O)(=O)c1ccccc1Cl)c1ccccc1Cl	-3	-7
Cc1nn(C)c(C)c1CN(Cc1nc(-c2ccccn2)no1)C(C)C	6	2
O=C(Cc1ccccc1)NC1CCN(c2ccccc2C(=O)NCc2ccc3c(c2)OCO3)CC1	-5	-8
Cc1cccc(C(=O)N2N=C3CCCCCC3C2(O)C(F)(F)F)c1O (configuration not stated)	-3	-1
CC(C)(C)c1cc(N2CCOCC2)n2ncc(-c3ccc(Cl)cc3)c2n1	2	7
CCOC(=O)c1c(C)[nH]c(C2=NNC(=NC3CCCCC3)SC2)c1C	15	14
CC(NC(=O)CCc1nnc(-c2ccccc2)o1)c1ccccc1 (configuration not stated)	-1	-3
Oc1ccc2ccccc2c1N=Nc1c(O)ccc2ccccc12	1	0
COc1ccc(S(=O)(=O)n2nc(C)c(S(=O)(=O)N3CCCC3)c2C)cc1C	7	7
Cc1ccc(CNC(=O)Cn2nc(-c3cccs3)c3sc(N4CCOCC4)nc3c2=O)cc1	-1	-6
Cc1ccccc1CCNC(=O)Cn1c(S(C)(=O)=O)nc2ccccc21	5	2
C/C=C/c1ccc(OCC(=O)NC(=O)NC(C)(C)C)c(OC)c1	1	-1
C=C(C)CN(CC)c1nc(-c2cc(Cl)cc(Cl)c2)nc2ccccc12	-2	2
CCCn1c(SCc2nc3ccccc3o2)n[nH]c1=O	0	-1
CCN(CC)c1ccc(/C=N\Nc2nc(C)cc(COC)c2C#N)c(O)c1	-4	-9
COc1cc(C)c(S(=O)(=O)NCc2cccc(CS(N)(=O)=O)c2)c(C)c1	-5	-6
CCOC(=O)CCC(=O)N[C@@H](C)C(=O)N1CCC(C(=O)N2CCCCC2)CC1	-12	-3
Cn1ncc(Oc2cccc(Cl)c2)c(Nc2ccc(C(=O)NCCc3ccccn3)cc2)c1=O	-6	0
OC1(c2cn(CC3CCCN(Cc4c[nH]c5ccccc45)C3)nn2)CCCC1 (configuration not stated)	2	1
CC(=O)c1ccc(O)c(CSC2=NCCS2)c1	-4	-8
Cc1cc(C)c2sc(N(Cc3cccnc3)C(=O)c3ccc(S(=O)(=O)N(C)C)cc3)nc2c1	-8	-5
CCOC(=O)CCC(=O)N1CCN(c2ncnc3c2nnn3C)CC1	0	15
COCCNC(=O)c1ccc(CSc2nnc(-c3cccnc3)n2-c2cccc(C)c2)cc1	15	6
CC1=NN(C(=O)c2cccnc2)C(O)(C(F)(F)C(F)(F)F)C1 (configuration not stated)	-3	-4
CCOC(=O)c1cc(-c2cccc(NC(=O)Cc3cccs3)c2)n(-c2ccccc2F)n1	11	5

Part of the list above, with bars between the fields.
Structure | NPYLR7 ag | NPYLR7 ag max-min
Cc1nn(C)c(C)c1CN(Cc1nc(-c2ccccn2)no1)C(C)C | 6 | 2
CC1=NN(C(=O)c2cccnc2)C(O)(C(F)(F)C(F)(F)F)C1 (configuration not stated) | -3 | -4
CCN(CC)c1ccc(/C=N\Nc2nc(C)cc(COC)c2C#N)c(O)c1 | -4 | -9
Cc1cc(C)c2sc(N(Cc3cccnc3)C(=O)c3ccc(S(=O)(=O)N(C)C)cc3)nc2c1 | -8 | -5
Cc1ccccc1CCNC(=O)Cn1c(S(C)(=O)=O)nc2ccccc21 | 5 | 2

(listing goes on)
SMILES	NPYLR7 ag	NPYLR7 ag max-min
O=S(=O)(NC1CCCc2ccccc21)c1ccc(F)cc1 (configuration not stated)	6	5
CC(NC(=O)C1CC1c1cc(F)ccc1F)c1nc(Cc2ccccc2)no1 (configuration not stated)	-2	18
Cc1ccc(C2CC2C(=O)NNC(=S)Nc2ccc([N+](=O)[O-])cc2)cc1 (configuration not stated)	11	13
N#CCNC(=O)[C@H](CCc1ccccc1)NC(=O)/C=C/c1cc(F)ccc1F	11	3
CCCn1c(=O)c2ccccc2n(C(CC)C(=O)NCCN2CCOCC2)c1=O (configuration not stated)	25	15
Cn1c(SCCn2cc(Br)cn2)n[nH]c1=O	6	3
COc1ccc(C(=O)Nc2cn[nH]c2)cc1Br	-10	-12
CCOC(=O)c1c(C)n(C)c2ccc(OC(=O)/C=C/c3ccccc3)cc12	-7	-13
O=C(CS(=O)(=O)CCCc1ccccc1)NCC1(c2ccccc2)CC1	3	1
CCCC12CN(C(=O)[C@H]3[C@@H](C(=O)OC)[C@H]4C=C[C@@H]3C4)CC1C(=O)NC(=O)N2 (some centres not stated)	-1	-2
CC1=NN(C(=O)COc2ccccc2C#N)C(O)(C(F)(F)F)C1 (configuration not stated)	16	6
Cc1ccc(-c2noc(CSc3nnnn3C3CCCC3)n2)cc1	21	16
CC(=O)Nc1nc(C(=O)NCc2ccc(CN3CC(C)CC(C)C3)cc2)cs1 (configuration not stated)	-4	-6
Cc1ccc(-n2nnnc2-c2cnc(C3CC3)nc2-c2cccs2)cc1	10	3
COCCNc1cc(C)nc2c(-c3ccc(Cl)cc3)c(C)nn12	-3	-5
CCN(CC)S(=O)(=O)c1ccc2c(c1)nc(SCc1cccc(C(=O)O)c1)n2C(C)C	14	10
CCC(=O)Nc1cccc(C(=O)NCc2cccc3[nH]ccc23)c1	-1	-2
CCOc1cccc(CN2CCN(c3ncnc4c(C)csc34)CC2)c1O	8	5
Cc1cc(C)cc(N2CCn3c2nc2c3c(=O)[nH]c(=O)n2C)c1	-4	-6
O=C(CSc1ccc2nnc(-c3ccncc3)n2n1)N1CCCCCC1	-6	-6
COc1cc(-c2nc3cc(C)ccn3c2NC(C)(C)CC(C)(C)C)ccc1OC(=O)c1ccccc1C	5	3
CCCC(=O)N1CCN(c2nc(C)cc(Nc3ccc(C)cc3)n2)CC1	7	-1
O=C1C(=NNC(=S)NCC2CCCO2)c2cccc3cccc1c23 (configuration not stated)	-2	7
C(=N/n1cnnc1)/c1ccc(OCc2cccc3ccccc23)cc1	-15	-18
COc1ccc(OCCNC(=O)c2cncn2-c2cccc(-c3cccc4c3sc3ccccc34)c2)cc1	13	11
SMILES	NPYLR7 ag	NPYLR7 ag max-min
COc1ccccc1-n1ncc2c(C(C)C)nnc(SCC(=O)Nc3cc(C)on3)c21	-13	-18
Cc1noc(C)c1CC(=O)Nc1cccc(OC2CCCC2)c1C	2	-1
CC(=O)N1CCN(CCNc2ccc3nccnc3n2)CC1	7	5
O=C(NC1CCN(Cc2ccccc2)CC1)c1ccc(Oc2nc(Cc3ccccc3)ns2)c(CN2CCOCC2)c1	19	13
NC(=S)N=C1CCN(c2cccc(C(F)(F)F)c2)N1	-4	-12
N#CCCN(CCC#N)Cn1c(=O)oc2cc(Br)ccc21	-5	-6
COc1ccc(-c2ccc(=O)n(CCNS(=O)(=O)c3ccccc3)n2)cc1	0	-3
O=C(Nc1ccccc1)Nc1cccc(-c2ccc3nnc(-c4ccncc4)n3n2)c1	9	7
CCCCN(CC(=O)Nc1cc(-c2ccccc2)nn1-c1ccc(F)cc1)C(=O)Nc1ccc(OCC)cc1	0	7
Cc1ccc(NC(=O)CN(C)C(=O)c2ccccc2O)cc1	-3	-3
C[C@]1(C(=O)O)Cc2oncc2C[C@@H]1C(=O)O	-6	-5
Cc1ccc(-n2ncc3c(=O)n(NC(=O)CCC4CCCC4)cnc32)cc1	9	4
CC1CN(CCCNC(=O)CSCc2ccc(C#N)cc2)CC(C)O1 (configuration not stated)	7	10
Cc1sc2nc(C(C)Sc3nnnn3C3CCCC3)[nH]c(=O)c2c1C (configuration not stated)	7	5
Cc1cnc(CNc2nc3cc(-c4ccccc4C)sc3c(=O)n2C)cn1	6	2
CN1N=C(C(=O)NCc2ccc(Br)c(F)c2)CCC1=O	3	1
COc1cc2c(cc1OC)CN(C(=O)c1ccc(C#CC(C)(C)O)o1)CC2	-1	-1
O=C(Nc1ccccc1)c1cccc(S(=O)(=O)Nc2cccc(F)c2)c1	-11	-21
C=CC(C)(O)CN(CCOC)Cc1c(C)nn(-c2ccccc2)c1Oc1cccc(OC)c1 (configuration not stated)	-3	3
CN(C(=O)c1nc(C2CC2)nn1-c1ccc2c(c1)OCCO2)c1ccccc1	24	8
CN(Cc1ncc[nH]1)CC1CC(=O)N(C2CCCC2)C1 (configuration not stated)	11	7
COc1ccccc1OCC1c2ccsc2CCN1C(=O)CN(CCN1CCCC1)C(=O)c1ccccc1OC (configuration not stated)	-2	0
CC(=O)c1cc(C(=O)OCC(=O)Nc2ccc(C)cc2)c2ccccn12	7	-5
Cc1ccc(NC(=O)Nc2c(O)c3ccccc3oc2=O)cc1	-8	-16
COCC1(C(=O)NC(c2cc(C)ccn2)C2CC2)CCC1 (configuration not stated)	0	1

Single records, from the list above.
`COc1ccc(-c2ccc(=O)n(CCNS(=O)(=O)c3ccccc3)n2)cc1` is listed with NPYLR7 ag: 0; NPYLR7 ag max-min: -3
`NC(=S)N=C1CCN(c2cccc(C(F)(F)F)c2)N1` is listed with NPYLR7 ag: -4; NPYLR7 ag max-min: -12
`O=C(Nc1ccccc1)c1cccc(S(=O)(=O)Nc2cccc(F)c2)c1` is listed with NPYLR7 ag: -11; NPYLR7 ag max-min: -21

Next part
SMILES	NPYLR7 ag	NPYLR7 ag max-min
CCC(CC)C(=O)Nc1cccc(-c2cccc(-c3ccc4c(c3)OCCO4)n2)c1	4	2
CC(C)NC(=O)NCC1CCN(Cc2ccc3ccccc3n2)C1 (configuration not stated)	-2	-2
CSc1ccc(C(=O)CCC(=O)N[C@H](CO)Cc2ccccc2)cc1	-1	-4
COc1ccc(NC(=S)NC2CC3CCC2C3)c(OC)c1 (configuration not stated)	17	10
COCCn1c(=O)[nH]c(=O)c2c3c(cnc21)C(=O)CC(/C=C/c1ccccc1)C3 (configuration not stated)	0	29
Cc1cnc(CNC(=O)Nc2nnc3ccccn23)s1	4	3
CC1C(=O)N(c2cccc(C(F)(F)F)c2)CCN1C(=O)c1cccs1 (configuration not stated)	-3	4
CN(Cc1ncc[nH]1)C(=O)c1c(Cl)c(C(F)(F)F)nn1C	7	4
COc1ccc(CN(CCc2c[nH]c3ccccc23)C(=O)CN(C(=O)COc2ccc(Cl)cc2)C2CC2)cc1	30	30
COCCN1CCN(CCN2C(=O)NC(C)(C)C2=O)CC1C (configuration not stated)	2	0
COc1ccc2c(=O)c3c(=O)n(Cc4ccccc4)c(-c4ccccc4)nc3oc2c1	-3	-3
COC[C@H]1C[C@H]2C[C@@H](O)[C@H](NC(=O)C3CCCCC3)[C@]2(O)CO1	24	34
COc1cc(/C=C2/SC(N)=NC2=O)ccc1OCc1ccccc1	5	2
CCc1oc(C(=O)N2CCOC(C(F)(F)F)C2)cc1CN(CC)CC (configuration not stated)	-2	-8
Cc1ccc2c(-c3cc4c(n(CC5CC5)c3=O)CCN(C(=O)C3=NN(C)C(=O)CC3)C4)cccc2n1	17	5
O=C1c2ccccc2C(=O)C1(O)c1c[nH]c2ccccc12	6	0
Cc1ccc2c(c1)CN(C(=O)c1ccc(Cn3nc(C)cc3C)cc1)CC(C)O2 (configuration not stated)	-1	-7
CCc1ncc(C(O)(c2ccccc2)c2cc(C)ccc2C)n1C (configuration not stated)	19	11
COc1ccc(C(=O)N2CCC3(CC2)OCC(C(=O)NCc2ccco2)N3C(=O)c2ccco2)cc1OC (configuration not stated)	17	10
CCOC(=O)C1(C/C=C/c2ccccc2)CCCN(C(=O)CCC2=NNC(=O)CC2)C1 (configuration not stated)	19	8

The list is partial; count on the stated rates, not on these rows.
